Sa RN4220 lethal: growth inhibition of S. aureus RN4220, primary screen, OD600. inhibition, % (test concentration not listed). 16 h. 0.33% of 330,000 active;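 active means z-score of -3 or lower and OD600 up to 0.18 on both plates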;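 further: plate controls were untreated cells for no effect and reference antibiotic for full effect; stock transfer was 100 nL into about 80 µL; one replicate is shown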
PrP UTR inh: inhibition of PrP 5' UTR reporter expression; inhibition, % (test concentration not listed); 0.35% of 340,000 active; cell-based PrP 5' UTR mRNA reporter, plate reader;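 active means every replicate at 50% or more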;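 further: 0 = median of the neutral control wells; tested in H4 reporter cells; numbers are from one replicate; inactives centre near -14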
Autofluor counter: counter-screen for toxin protease inhibitors: compound fluorescence; compound autofluorescence counterscreen, microsphere flow cytometry; hits give high values; fluorescence intensity (test concentration not listed); 3.1% of 360,000 active; AID 624483;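 active means at least 3 SD above the mean of all compounds, about 16000 in these data; inconclusive means too few beads counted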;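 further: 100 nL of 1 mM stock went into each well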
Mtb hypoxia rep: PubChem AID 1159583; M. tuberculosis hypoxia-regulated fluorescent reporter, fluorescence; fluorescence inhibition, % (no concentration beside the values); 0.1% of 300,000 active;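 active means 35 to 45% if threefold the growth effect, above 45% if 1.5-fold the growth effect; inactive means the rest, general growth blockers included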;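 further: wells of about 50 µL received 100 nL stock; 0% = vehicle wells and 100% = reference inhibitor wells; whole bacteria with a GFP reporter of the hypoxia response; strong numbers were not always called active; many hits fall short of the cut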
Sa ugtP lethal: growth inhibition of ugtP-null S. aureus, primary screen, RN4220 ugtP deletion, OD600 | AID 1259309, 2017 | growth inhibition, % (no concentration beside the values) | 0.54% of 330,000 active | 16 h; some inactives read as strong as hits;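 active means z-score under -3 and OD600 up to 0.15 on both plates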;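 further: plate controls were untreated wells for no effect and antibiotic for full effect; wells of about 80 µL received 100 nL stock; the first replicate is given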
BJeLR lethal: MLPCN primary cell-based screen for lethality selective to Ras in HRASV12 cells; inhibition, % (test concentration not listed); 0.17% of 300,000 active; BJeLR (HRASV12) viability, CellTiter-Glo ATP luminescence, 48 h; reference of the scale not given here; AID 1554, 2009;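 active means replicate mean above 50%; inconclusive means above 50% but judged a plate artefact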;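 further: 50 nL library stock added to about 25 µL; numbers are from one replicate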
Mtb hypoxia rep growth: second read-out of Mtb hypoxia rep, no call of its own (marks repeat the call); growth inhibition, %; measured here: M. tuberculosis growth (absorbance);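 0% = vehicle and 100% = reference antibiotic; read after six days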
* hit, by the source's call; ? = inconclusive; . = no result given; & = joins results of further samples; ! = not active in a repeat. Rows were taken by chance; overall some 4% were active at least once.

SMILES	Sa RN4220 lethal	PrP UTR inh	Autofluor counter	Mtb hypoxia rep	Mtb hypoxia rep growth	Sa ugtP lethal	BJeLR lethal
Cc1cccc(-n2ncc3c2CCCC3NC(=O)CN2CCOC2=O)c1C (configuration not stated)	3.0	-17.0	5403	11.3	-1.3	-1.5	2.7
CC1CC(C)CN(CCCNC(=O)c2ccc(N3CCCC3=O)cc2)C1 (configuration not stated)	2.8	-5.8	4653	15.4	5.4	11.5	0.5
COc1ccc(C(=O)N2CCCC2)cc1S(=O)(=O)N1CCOCC1	2.4	-14.3	20709*	0.4	-4.2	9.4	-3.1
CC1CN(S(=O)(=O)c2cc(C(=O)N(C)Cc3cccs3)ccc2Cl)CC(C)O1 (configuration not stated)	4.8	-1.3	.	1.7	2.0	1.6	.
COc1cc([N+](=O)[O-])ccc1N	5.3	-16.6	2565	-3.4	-8.5	6.3	0.8
Cn1cnc(S(=O)(=O)Nc2ccc(OC(F)(F)F)cc2)c1	6.0	29.3	3119	12.9	11.6	4.8	2.3
Cc1ccccc1N(C)S(=O)(=O)c1ccc2[nH]cc(C(=O)NCC3CCCO3)c(=O)c2c1 (configuration not stated)	3.4	-41.3	11174	1.3	0.0	1.9	.
CC(C)Oc1ccc(C(CCNCc2ccc(O)cc2)c2ccccc2)cc1 (configuration not stated)	-3.7	-11.1	3655	7.0	11.3	15.9	9.0
CCOc1cc(N2CCOCC2)c(OCC)cc1NC(=O)c1nc2nc(C)cc(C)n2n1	1.9	3.1	2531	.	.	-7.7	-7.1
OCCC1CC(O)C(O)[C@@]2(CCCc3ccccc3O2)O1 (some centres not stated)	98.7*!	.	.	13.4&12.2&-18.1	6.3&0.3&2.2	95.4*!	.
OCc1cn(-c2ccccc2)nc1-c1cccnc1	8.3	-17.2	2456	13.5	8.3	-7.1	-0.6
C=C1C(O)C(CC(C)C)N(Cc2ccccc2Br)S1(=O)=O (configuration not stated)	11.7	.	.	17.3	13.3	3.5	.
O=C1CCc2cc(S(=O)(=O)Nc3ccccc3)cc3c2N1CCC3	7.5	-14.2	?	4.1	8.3	8.5	-7.6
COc1ccccc1NC(=O)C1CCCN1S(=O)(=O)c1cccc2nsnc12 (configuration not stated)	7.3	-17.1	4437	-6.1	1.0	11.5	-0.3
CC1=NN(c2ccc(C)cc2)C(=O)/C1=C/c1ccc(-c2cc([N+](=O)[O-])ccc2O)o1	39.4	-15.4	3024	15.5	2.5	85.0*	0.1
O=C(O)c1ccc(NCCC2=CCCCC2)c([N+](=O)[O-])c1	15.7	-32.6	4473	13.5	2.9	14.8	2.7
CCOC(=O)c1nnn(CC(=O)Nc2cc(F)ccc2F)c1C(=O)OCC	3.2	-23.5	4557	.	.	5.1	-3.3
CC(CC(=O)Nc1cccc2c1CCCC2)=NNC(=O)c1ccccc1N	1.5	.	.	2.3	-6.2	1.6	.
COc1ccc(S(=O)(=O)N2CCC(C(N)=O)CC2)cc1C(=O)N1CCCCCC1	0.2	1.0	3995	15.5	8.6	1.8	-1.9
O=C(NNC(=O)c1cccs1)c1ccc2ccccc2c1	-7.5	-28.1	3270	3.5	0.6	-1.3	0.7
O=C(Nc1ccccc1N1CCCCC1)c1cccc(F)c1	8.5	-15.9	10026	23.5	0.0	15.4	-4.0
Cc1cccc(-n2ccc(=O)c(C(=O)Nc3ccc(S(=O)(=O)Nc4onc(C)c4C)cc3)n2)c1	-0.8	4.0	5222	20.6	21.3	-7.2	7.5
CCc1ccc(-c2cc(C)no2)cc1S(=O)(=O)N1CCN(c2ccccc2)CC1	2.3	-22.2	5358	13.4	13.2	13.2	-3.3
O=C(COC(=O)CC(c1ccccc1)c1ccccc1)Nc1cccc(F)c1	1.7	-4.0	2009	-5.5	0.0	9.1	1.7
Cc1oc(-c2ccc3ccccc3c2)nc1CN(C)C(C)c1ccncn1 (configuration not stated)	1.5	-37.1	3353	7.3	2.7	3.3	3.5
CSc1nc2c(c(-c3ccc(O)cc3)c1C#N)CCC2	-1.2	6.6	3325	1.5	1.4	20.0	-0.3
O=C1OCCN1C(=O)[C@H]1[C@H](c2ccc(Cl)cc2)C(c2cccc(Cl)c2)=NN1c1ccccc1	.	-23.1	4314	.	.	.	2.7
CSc1ncc(S(=O)(=O)c2ccccc2)c(=O)[nH]1	3.2	-31.9	4364	9.3	1.0	4.8	1.7
CC(C)n1c(O)c(N=Nc2ccc(Cl)c(C(=O)O)c2)c2ccccc21	7.9	-23.9	4541	2.7	-5.5	6.5	3.8
COCCN(C(=O)COC(=O)c1cc2c(s1)CCC2)c1c(N)n(Cc2ccccc2)c(=O)[nH]c1=O	.	-0.4	?	.	.	.	17.6
O=C(Cc1cc(=O)[nH]c(=O)[nH]1)NCC1CCCO1 (configuration not stated)	2.9	-20.0	5358	15.7	8.0	3.9	4.7
OCC1(Cc2ccccc2)CCN(Cc2ccc(C(F)(F)F)cc2)CC1	0.3	23.7	4472	0.1	13.3	1.8	1.9
Cc1cc(C)nc(SCC(=O)OCN2C(=O)c3ccccc3C2=O)n1	-2.9	4.8	3032	.	.	-1.2	-0.6
CCOC1=NN(c2ncc(C(F)(F)F)cc2Cl)C(=O)C1	2.1	-19.9	4126	-2.1	5.4	9.3	6.2
Cc1ccc(C(=O)COC(=O)C2CCC2)cc1	.	-22.0	3938	.	.	.	-4.0
O=C(NCCc1ccccc1)c1cnc(Cl)c(Cl)c1	4.2	-26.5	2953	15.8	9.4	10.6	-1.6
Cc1ccccc1NC(=S)NC(C)C(c1cccs1)N1CCOCC1 (configuration not stated)	-3.1	-29.7	5639	12.6	6.6	-8.5	3.9
O=C(NCCCn1ccnc1)c1noc2c1CCc1ccccc1-2	1.2	-36.8	9938	-5.4	3.7	-7.3	0.9
COc1cc(C(=O)OCC(=O)N(C)Cc2ccccc2)cc(OC)c1OC	-12.9	-23.0	2893	19.6	7.5	-8.7	7.9
COCCn1c(Sc2ccc(C)cc2)nc2c1c(=O)[nH]c(=O)n2C	4.2	-5.7	3671	-3.2	4.0	4.2	-7.8
COc1ccc(S(=O)(=O)N2CCOCC2)cc1C(=O)NCc1ccccc1CN1CCCC1	2.7	-8.7	3858	8.1	-2.3	1.9	.
N#Cc1ccccc1Cn1cc(/C=C/[N+](=O)[O-])c2ccccc21	39.5	-12.7	10282	11.6	-9.9	-9.9	4.9
O=C(O)C1CC=CCC1C(=O)N1CC=C(c2ccccc2)CC1 (configuration not stated)	3.6	-2.0	4936	6.7	15.1	-4.8	.
COc1ccc(NC(=O)CCCCCN2C(=O)c3cccc([N+](=O)[O-])c3C2=O)c(OC)c1	1.4	-13.0	4062	9.7	6.0	2.9	-17.0
Cc1ccc(/C=N/NC(=O)CNC(=O)c2cccs2)cc1	.	5.6	5833	.	.	.	-11.4

Some of the entries above, reformatted:
Each structure is followed by: Sa RN4220 lethal	PrP UTR inh	Autofluor counter	Mtb hypoxia rep	Mtb hypoxia rep growth	Sa ugtP lethal	BJeLR lethal
> Cc1cccc(-n2ncc3c2CCCC3NC(=O)CN2CCOC2=O)c1C (configuration not stated)
    3.0	-17.0	5403	11.3	-1.3	-1.5	2.7
> CC1CC(C)CN(CCCNC(=O)c2ccc(N3CCCC3=O)cc2)C1 (configuration not stated)
    2.8	-5.8	4653	15.4	5.4	11.5	0.5
> COc1ccc(C(=O)N2CCCC2)cc1S(=O)(=O)N1CCOCC1
    2.4	-14.3	20709*	0.4	-4.2	9.4	-3.1
> CC1CN(S(=O)(=O)c2cc(C(=O)N(C)Cc3cccs3)ccc2Cl)CC(C)O1 (configuration not stated)
    4.8	-1.3	.	1.7	2.0	1.6	.
> COc1cc([N+](=O)[O-])ccc1N
    5.3	-16.6	2565	-3.4	-8.5	6.3	0.8
> Cn1cnc(S(=O)(=O)Nc2ccc(OC(F)(F)F)cc2)c1
    6.0	29.3	3119	12.9	11.6	4.8	2.3
> Cc1ccccc1N(C)S(=O)(=O)c1ccc2[nH]cc(C(=O)NCC3CCCO3)c(=O)c2c1 (configuration not stated)
    3.4	-41.3	11174	1.3	0.0	1.9	.
> CC(C)Oc1ccc(C(CCNCc2ccc(O)cc2)c2ccccc2)cc1 (configuration not stated)
    -3.7	-11.1	3655	7.0	11.3	15.9	9.0
> CCOc1cc(N2CCOCC2)c(OCC)cc1NC(=O)c1nc2nc(C)cc(C)n2n1
    1.9	3.1	2531	.	.	-7.7	-7.1
> OCCC1CC(O)C(O)[C@@]2(CCCc3ccccc3O2)O1 (some centres not stated)
    98.7*!	.	.	13.4&12.2&-18.1	6.3&0.3&2.2	95.4*!	.
> OCc1cn(-c2ccccc2)nc1-c1cccnc1
    8.3	-17.2	2456	13.5	8.3	-7.1	-0.6

New compounds follow.
SMILES	Sa RN4220 lethal	PrP UTR inh	Autofluor counter	Mtb hypoxia rep	Mtb hypoxia rep growth	Sa ugtP lethal	BJeLR lethal
CC(C)n1nc(C(=O)Nc2cccc(S(=O)(=O)N3CCCCC3)c2)c2ccccc2c1=O	3.3	-16.2	9428	9.8	3.3	4.3	.
COc1cc(/C=N/NC(=O)c2cccc(S(=O)(=O)N3CCCC3)c2)ccc1O	.	-3.6	?	.	.	.	0.9
COc1ccc(C(=O)/C(=C\c2ccco2)N2C=CC=CC2=C(C#N)C#N)cc1	30.4	23.6	3381	8.1	-0.3	29.6	25.2
O=C(Nc1ccc2c(c1)OCCO2)C1CCN(S(=O)(=O)c2ccccc2)CC1	5.2	0.7	1930	2.3	3.6	11.5	7.4
CCNC(=O)CC1C(=O)N(c2ccc(C)cc2)C(=O)N1CCC(C)C (configuration not stated)	4.2	-3.4	3684	11.5	6.1	6.6	0.8
COC(=O)C1=C(c2cc3ccccc3s2)C[C@@H]2CC[C@H]1N2C(=O)N1CCOCC1	.	-17.2	2787	.	.	.	15.4
O=C(COc1ccc([N+](=O)[O-])cc1)Nc1cccc(C(=O)Nc2ccccc2C(=O)O)c1	5.0	-4.9	4312	2.9	0.0	13.1	-1.9
Cc1cccc(CN2CCN(Cc3ccc(Cl)cc3)CC2)c1	-1.6	-24.2	2650	.	.	0.9	-0.2
CCOC(=O)c1c(NC(=O)COC(=O)c2c(C)noc2C)sc2c1CCC2	4.8	-3.0	4176	5.3	5.0	3.1	0.5
CC/C=C\[C@H](O)[C@H](O)C1=C(C)C(=O)[C@]2(O1)C(=O)N[C@@](OC)(C(=O)c1ccccc1)C2O (some centres not stated)	3.5	-9.4	5027	.	.	-8.0	-7.9
CN=C1CC(C)(C)CC(=O)/C1=C(/O)CCCN1C(=O)c2ccccc2C1=O	.	-31.2	3480	.	.	.	-4.2
CCOC(=O)c1ccc[n+](CC(=O)c2ccc(OC)cc2)c1	2.6	2.3	2046	4.7	3.8	7.5	-0.9
CC1(C)CC2CC(C)(CN2C(=O)COC(=O)c2ccc(Cl)cc2N)C1 (configuration not stated)	11.6	-8.7	2512	20.2	1.9	10.1	0.1
O=C(O)c1cc(-c2ccc(/C=N/Nc3ccc([N+](=O)[O-])cn3)o2)ccc1Cl	.	-28.2	4087	.	.	.	-4.1
CC(=O)c1ccc(NC(=O)CSc2nc(N)c3cc4c(nc3n2)CCCC4)cc1	1.2	-18.6	2680	7.3	5.2	-5.4	9.0
O=C(CN1CCOCC1)Nc1ccc([N+](=O)[O-])cc1Br	3.6	-30.7	3995	-0.4	8.5	-8.5	3.8
Cc1nc(SCCO)c([N+](=O)[O-])[nH]1	4.7	1.2	3822	0.0	11.1	7.3	-3.1
C=CCn1c(SCC(=O)c2ccc(Cl)s2)nc2ccccc2c1=O	0.6	-14.6	9140	10.2	5.1	2.3	-7.8
O=C(Nc1cc(-c2ccccc2)[nH]n1)c1ccccc1F	1.4	.	.	-1.9	-4.5	-1.8	3.3
C(=N\Nc1ncnc2sc3c(c12)CCC3)/c1cccs1	.	-11.3	7794	.	.	.	3.6
COc1ccc(CN2CCN(Cc3ccccc3C(F)(F)F)CC2)c(OC)c1	1.7	-9.3	3648	6.2	6.1	9.7	2.9
COc1cc(/C=C2\CCCc3c2nc2ccccc2c3C(=O)O)cc(Br)c1O	8.3	-13.2	5746	4.1	12.6	4.1	-8.3
CN(C)CCNC(C(=O)Nc1cc(Cl)cc(Cl)c1)c1ccccc1 (configuration not stated)	-1.0	-8.9	4170	12.4	0.2	-2.2	9.7
COc1ccc(C(CNC(=O)c2ccc(S(=O)(=O)N3CCCC3)cc2)N2CCOCC2)cc1 (configuration not stated)	1.0	-17.1	4264	-10.6	-3.1	3.1	5.2

High-throughput results from PubChem BioAssay.
